CtBP-E1A blk = qHTS Assay for Inhibitors of the CtBP/E1A Interaction; CtBP / adenovirus E1A interaction (AlphaScreen); AlphaScreen GST-E1A/His-CtBP binding, 1536-well; hits give low values; control for the full effect not named in the record; activity change, % (test concentration not listed); actives 0.49% (n = 340,000); AID 651724, 2012; in the data active means activity change below about -65%; inconclusive means about -30% to -65%; inactive means above about -30%; note: % is set by controls: 0 for no effect and ±100 for the full control effect; compound concentration not given in the record
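In 5 uL wells, 23 nL compound meets equimolar GST-E1A and His-CtBP (5X stock 125 nM each) for 2 h, 37 °C. Beads (5X, 50 ug/mL) then 1 h, 37 °C, dark.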
Six1-Eya2 inh = qHTS Assay for Inhibitors of the Six1/Eya2 Interaction | AID 651725, 2012 | Homeobox protein SIX1 (Homo sapiens) + Protein phosphatase EYA2 (Homo sapiens), … | activity change, % (no concentration beside the values) | actives 0.56% (n = 360,000) | AlphaScreen GST-Six1/His-Eya2 binding, biochemical; hits give low values; control for the full effect not named in the record; in the data active = activity change below about -65%; inconclusive = about -30% to -65%; inactive = above about -30%; note: % is set by controls: 0 for no effect and ±100 for the full control effect; compound concentration not given in the record
Target sequence (O00167 whole entry, looked up): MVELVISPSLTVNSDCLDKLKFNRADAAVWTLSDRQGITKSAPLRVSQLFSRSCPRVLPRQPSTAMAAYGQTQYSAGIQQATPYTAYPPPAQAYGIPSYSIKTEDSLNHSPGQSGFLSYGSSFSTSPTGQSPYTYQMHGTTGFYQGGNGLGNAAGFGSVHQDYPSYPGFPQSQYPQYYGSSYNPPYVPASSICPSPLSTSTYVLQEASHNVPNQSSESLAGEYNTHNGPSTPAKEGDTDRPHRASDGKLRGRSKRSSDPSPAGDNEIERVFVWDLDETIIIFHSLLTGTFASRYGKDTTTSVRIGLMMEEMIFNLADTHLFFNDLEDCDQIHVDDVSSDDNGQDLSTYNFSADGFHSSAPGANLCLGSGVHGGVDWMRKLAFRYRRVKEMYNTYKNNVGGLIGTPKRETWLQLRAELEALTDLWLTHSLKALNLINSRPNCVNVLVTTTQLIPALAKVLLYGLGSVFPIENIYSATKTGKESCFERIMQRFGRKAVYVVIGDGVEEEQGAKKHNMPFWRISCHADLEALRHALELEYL
Target sequence (Q15475 whole entry, looked up): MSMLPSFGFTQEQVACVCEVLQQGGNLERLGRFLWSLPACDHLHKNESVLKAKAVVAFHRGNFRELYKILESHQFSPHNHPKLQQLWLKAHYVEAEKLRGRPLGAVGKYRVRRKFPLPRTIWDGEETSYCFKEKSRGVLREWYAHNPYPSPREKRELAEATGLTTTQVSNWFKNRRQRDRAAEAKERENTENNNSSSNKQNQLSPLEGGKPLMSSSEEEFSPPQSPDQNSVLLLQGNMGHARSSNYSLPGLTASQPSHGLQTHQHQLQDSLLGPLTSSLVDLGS
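Homogeneous AlphaScreen proximity assay pairing GST-Six1 with His-tagged Eya2 (added as 5X mix: 250 nM and 500 nM) in 50 mM Tris pH 8.0, 300 mM NaCl, 1 mM TCEP. Glutathione donor and nickel acceptor beads; 1 h, 37 °C, dark.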
TRPML1 agonist = qHTS for Agonists of the Human Mucolipin Transient Receptor Potential 1 (TRPML1); Mucolipin-1 (Homo sapiens), Q9GZU1; TRPML1-expressing cells, Ca2+ dye fluorescence, FDSS; host cell line not named in the record; reference of the full effect not given here; activation, % (concentration not given with the values); actives 0.12% (n = 410,000); in the data active = activation above about 50%; inconclusive = about 30% to 50%; inactive = below about 30%; note: 0% is about no effect; the text of the record puts the active cut at 80%
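In this qHTS format, compounds were pin-transferred onto Ca8-dye-loaded TRPML1-DL cells induced with Tet overnight, and intracellular Ca2+ fluorescence was recorded kinetically for 110 s after a 10 s baseline. A subsequent 4uM final 54-4 (EC80) addition followed by a second 110 s read served as the antagonist phase.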
TRPML1 blocker = qHTS for Inhibitors of the Human Mucolipin Transient Receptor Potential 1 (TRPML1); Mucolipin-1 (Homo sapiens), Q9GZU1; TRPML1-inducible cells, Ca2+ dye fluorescence, FDSS; hits give low values; inhibition of EC80 agonist-evoked calcium signal; activity change, negative = inhibition, % (concentration not given with the values); actives 0.02% (n = 390,000); AID 624415, 2012; in the data active means activity change below about -50%; inconclusive means about -30% to -50%; inactive means above about -30%;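 note: stimulus is agonist 54-4 at its EC80 concentration; % is set by controls: 0 for no effect and ±100 for the full control effect; compound concentration not given in the record; the text of the record puts the active cut at -80%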
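TRPML1-DL cells, Tet-induced overnight (~16 h, 37 °C) at 1,500 cells/well, were loaded with Ca8 no-wash dye plus quencher for 45-90 min at room temperature. Compounds were pinned during FDSS kinetic reading; agonist 54-4 at EC80 (4 uM final) then added.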
PINK1 modulator = A Quantitative High throughput Screen to Identify Chemical Modulators of PINK1 Expression; PINK1 immunofluorescence, high-content cytometry, 24 h; Potency, µM (series often up to 76.6 µM), inactives show top-dose activation (PINK1 increase), usual class: activators; actives 0.2% (n = 410,000); active = well fitted activation curve with a large enough effect; inconclusive = small, poorly fitted or top-dose-only effect; inactive = flat fitted curve, though single readings scatter; cell line not stated here;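 note: potency is the fitted concentration of half-maximal effect; % of control where 0% means no effect; nearly all actives have a fitted effect of over 65% in size; a mitochondrial uncoupler was the plate control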
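Cells are seeded, rested 12 hours, then given compound at five concentrations or DMSO for 24 hours. After fixation, blocking and antibody staining, PINK1 amount and mitochondrial localization are scored; CCCP serves as control.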
D2 ag = Beta-Arrestin HTS for Positive Allosteric Modulators of the Human D2 Dopamine Receptor: Agonists; DiscoveRx PathHunter D2 beta-arrestin, luminescence, 90 min; 100% = 57 uM dopamine signal; activation, % (concentration not given with the values); actives 0.084% (n = 360,000); AID 624465, 2012; in the data active = activation above about 40%; inconclusive = about 15% to 40%; inactive = below about 15%; note: compound concentration not given in the record; the text of the record calls up to 30% inactive
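DiscoveRx PathHunter D2 beta-arrestin cells (2,100/well) attached overnight, then compound-stimulated 90 min at 37 C in HBSS/10 mM HEPES/0.1% Tween-20 buffer; beta-galactosidase complementation read by luminescence after 1 h at ambient temperature. Dopamine 57 uM final (EC100) as control.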
Numbers without * were called inactive; u = inconclusive; x = not tested or not shown; & = joins results of further samples; [ ] = another dose, or the depositor's remark.

1	Nc1cccc(Cl)c1N1CCOCC1
2	CC(C)(C)c1cc2ncnc(N3CCCCC3)c2s1
3	COc1ccccc1NC(=S)N=Nc1c(O)[nH]c2ccc(Br)cc12
4	COc1ccc(-c2c(N)nnc3c2[nH]c2ccccc23)cc1OC
5	CCOC(=O)N/N=C(\C)c1ccccc1OC(F)F
6	Cc1c(C(=O)N2CCCCC2C)sc2nc3n(c(=O)c12)CCC3 (stereo not drawn)
7	COc1ccc(Cl)cc1NC(=O)c1cn(C2CCCC2)c(=O)c2c1c1ccccc1n2C
8	COCCNC(=O)C(C#N)c1nc2ccccc2nc1N1CCCCCC1 (stereo not drawn)
Screen / compound no.	1	2	3	4	5	6	7	8
CtBP-E1A blk	4	-7	x	-8	7	-4	x	-5
Six1-Eya2 inh	-2	2	-8	-11	6	4	x	-8
TRPML1 agonist	3.2	0.6	-0.9	-0.2	0.2	-0.4	1.6	1.5
TRPML1 blocker	1	-18	14	-1	10	14	-7	5
PINK1 modulator	-1.9%	-0.2%	13%	-0.1%	7.5%	0.3%	-0.6%	-0.9%
D2 ag	-3.1	-3.3	-7.9	-1.1	-0.7	-1.5	x	-1.9

9	Cc1cccc(NC(=O)COC(=O)c2cccs2)c1C
10	COc1cccc(C(=O)c2cn(CC(=O)Nc3cccc(Cl)c3C)c3nc(C)ccc3c2=O)c1
11	O=C(c1ccccc1)N1CCC(c2nc3ccccc3o2)CC1
12	Cc1nnc(NC(=O)c2ccc(Br)o2)s1
13	COc1ccc(-c2cc3c(=O)n(CC(=O)Nc4ccc(C(C)=O)cc4)ncn3n2)cc1
14	COc1ccccc1NC(=O)c1cc2c(cc1Cl)N1CCCCCC1=NS2(=O)=O
15	COC(=O)c1ccc(CN2CCCC(C(=O)c3ccccc3OC)C2)cc1 (stereo not drawn)
16	Cn1c(=O)c2c(nc(N/N=C/c3ccc(OC(=O)c4ccco4)cc3)n2Cc2ccccc2)n(C)c1=O
Screen / compound no.	9	10	11	12	13	14	15	16
CtBP-E1A blk	0	x	x	x	x	-2	2	-12
Six1-Eya2 inh	6	x	x	5	-13	-1	-6	-7
TRPML1 agonist	1.4	1.8	4.6	1.1	-0.8	-0.2	0.9	0.1
TRPML1 blocker	-14	-6	15	-9	20	8	-14	28
PINK1 modulator	1.0%	1.8%	1.9%	2.9%	3.6%	1.2%	2.9%	2.8%
D2 ag	3.3	x	x	0.6	9.8	-3.5	-1.7	-1.5

17	CCCCn1c(N)c(N(CCC(C)C)C(=O)c2ccc(N3CCCC3=O)cc2)c(=O)[nH]c1=O
18	Cc1ccc(C(=O)OCC(=O)NCCN2C(=O)CSC2=O)cc1[N+](=O)[O-]
19	Cc1cc(C)c(S(=O)(=O)Nc2ccc3oc4c(c3c2)CCCC4)cc1C
20	COC(=O)C1NC(=O)N2C(C(=O)OC)C(C)(C)S[C@H]12 (stereo partly drawn)
21	Cc1ccc(S(=O)(=O)CC(=O)N(CCCN(C)C)c2nc3ccc(C)cc3s2)cc1
22	COC(=O)c1cc(NC2c3ncccc3C(=O)N2Cc2ccccc2)cc(C(=O)OC)c1 (stereo not drawn)
23	O=C1CC(c2ccccc2)Cc2nc(NC3CC3)ncc21 (stereo not drawn)
24	CCOc1ccc(NC(=S)NCCCN2CCN(c3ccc(OC)cc3)CC2)cc1
Screen / compound no.	17	18	19	20	21	22	23	24
CtBP-E1A blk	5	-22	x	2	-4	1	-4	-15
Six1-Eya2 inh	0	-1	x	0	7	-2	7	-12
TRPML1 agonist	-0.8	-0.5	4.0	-0.7&-0.1	0.2	-0.3	-0.2	1.2
TRPML1 blocker	17	-19	-10	-1	-16	-10	22	-6
PINK1 modulator	2.9%	-0.9%	u	-1.5%	2.9%	0.0%[38.3 µM]	5.6%	-0.1%
D2 ag	-2.0	-4.8	x	-1.6	-4.2	-0.6	-3.7	-1.5

Taken from above.
no. 14 | CtBP-E1A blk: -2
no. 13 | Six1-Eya2 inh: -13

Further entries follow:
25	CC(C)N1C(=O)S/C(=C/c2ccc3c(c2)n(C)c(=O)n3C)C1=O
26	Cc1ccc2oc(C(=O)Nc3ccc(S(=O)(=O)N4CCCCC4C)cc3)cc(=O)c2c1 (stereo not drawn)
27	O=C(CSc1c(Cl)cccc1Cl)N1CCC(c2nc3ccccc3s2)CC1
28	COc1ccc(NC(=O)C2CCCN2C(=O)OCc2ccccc2)cc1 (stereo not drawn)
29	CCc1nc2c(OCc3ccc(F)c(F)c3)cccn2c1N(C)C(=O)C(C)C
30	Cc1nnc(SCC(=O)N2CC(=O)Nc3ccccc32)n1-c1ccccc1
31	O=C(Cn1ccsc1=NC(=O)C(F)(F)F)c1ccccc1
32	CCOC(=O)C1CCN(Cc2ccc(F)cc2)CC1
Screen / compound no.	25	26	27	28	29	30	31	32
CtBP-E1A blk	6	x	9	2	2	-7	-1	8
Six1-Eya2 inh	1	x	-4	5	1	-2	-4	6
TRPML1 agonist	0.9	1.3	0.5	1.2	-0.4	1.8	0.0	-0.5
TRPML1 blocker	-18	-10	24	-10	20	-11	20	9
PINK1 modulator	2.9%	1.5%	1.1%	0.3%	4.1%	-2.1%	3.9%	1.2%[38.3 µM]
D2 ag	0.8	x	-3.3	2.7	-0.4	-1.4	-0.7	-0.4

33	COc1cccc2c1C(=O)c1c(O)c3c(c(O)c1C2=O)C[C@@](O)(C(C)=O)C[C@@H]3O[C@H]1C[C@H](N)[C@H](O)[C@H](C)O1
34	Cc1cccc(NC(=O)NNC(=O)COc2ccc([N+](=O)[O-])cc2)c1C
35	CCC(=O)OCC(=O)Nc1cc(C)c(C)cc1[N+](=O)[O-]
36	S=c1[nH]nc(-c2ccccn2)n1/N=C/c1c(Cl)cccc1Cl
37	COCCNC(=O)C1(C)CCCN(Cc2ccc(-c3ccccn3)cc2)C1 (stereo not drawn)
38	O=C(CCN=C1NS(=O)(=O)c2ccccc21)OCC(=O)c1ccccc1
39	Cc1cc(SCC(=O)Nc2ccc(O)cc2)n2nc(C)c(-c3ccccc3)c2n1
40	COc1ccccc1NC(=O)c1c(NC(=O)c2ccco2)sc2c1CCC(C(C)(C)C)C2 (stereo not drawn)
Screen / compound no.	33	34	35	36	37	38	39	40
CtBP-E1A blk	-7	-1	-2	-1	-13	-7	u	x
Six1-Eya2 inh	6	-2	-3	-80*	12	-2	u	x
TRPML1 agonist	12	0.0	2.1	-0.5	0.5	-0.9	2.2	0.1
TRPML1 blocker	-9	0	23	9	-3	-10	3	2
PINK1 modulator	0.2%	-0.4%	-0.1%	-0.7%	1.2%	1.6%	1.3%	1.4%
D2 ag	-3.7	-7.0	-3.6	-2.8	-1.5	-7.3	u	x

41	CSS(=O)(=O)c1cccc2cccnc12
42	Cc1ccccc1CN1CCN(Cc2cc3ccccc3o2)CC1CCO (stereo not drawn)
43	CC(C)CNS(=O)(=O)c1ccc(CCC(=O)Nc2ccc3c(c2)OCCO3)cc1
44	Cc1cccn2cc(-c3ccc(F)cc3)nc12
45	Cc1ccc(NC2=NCC(=O)N2c2ccc3c(c2)OCCO3)c(C)c1
46	COC(=O)CCCC(=O)Nc1ccc(Cl)c(Cl)c1
47	CCc1ccc(OCCCC(=O)Nc2ccc(S(=O)(=O)Nc3cc(C)nc(C)n3)cc2)cc1
48	CCOC(=O)[C@]12CCC=C1N(Cc1cccc3ccccc13)C(=O)[C@H](CC(=O)NCCc1ccccc1OC)C2
Screen / compound no.	41	42	43	44	45	46	47	48
CtBP-E1A blk	-70*	-8	-2	-1	4	8	-4	2
Six1-Eya2 inh	u	-3	11	0	5	3	-6	-4
TRPML1 agonist	3.0	0.6	0.0	0.6	1.5	0.3	0.2	-0.4
TRPML1 blocker	30	19	11	5	-9	15	22	x
PINK1 modulator	8.2%	15%	-1.2%	-1.3%	-2.5%	-1.7%	0.3%	-0.2%
D2 ag	0.4	-4.3	1.5	3.3	-1.4	-2.0	-0.6	x

Looked up by structure from the list above, 2 records:
45	Cc1ccc(NC2=NCC(=O)N2c2ccc3c(c2)OCCO3)c(C)c1
46	COC(=O)CCCC(=O)Nc1ccc(Cl)c(Cl)c1
Screen / compound no.	45	46
CtBP-E1A blk	4	8
Six1-Eya2 inh	5	3
TRPML1 agonist	1.5	0.3
TRPML1 blocker	-9	15
PINK1 modulator	-2.5%	-1.7%
D2 ag	-1.4	-2.0

A portion taken from the entries so far, for reference:
43	CC(C)CNS(=O)(=O)c1ccc(CCC(=O)Nc2ccc3c(c2)OCCO3)cc1
44	Cc1cccn2cc(-c3ccc(F)cc3)nc12
45	Cc1ccc(NC2=NCC(=O)N2c2ccc3c(c2)OCCO3)c(C)c1
46	COC(=O)CCCC(=O)Nc1ccc(Cl)c(Cl)c1
47	CCc1ccc(OCCCC(=O)Nc2ccc(S(=O)(=O)Nc3cc(C)nc(C)n3)cc2)cc1
48	CCOC(=O)[C@]12CCC=C1N(Cc1cccc3ccccc13)C(=O)[C@H](CC(=O)NCCc1ccccc1OC)C2
Screen / compound no.	43	44	45	46	47	48
CtBP-E1A blk	-2	-1	4	8	-4	2
Six1-Eya2 inh	11	0	5	3	-6	-4
TRPML1 agonist	0.0	0.6	1.5	0.3	0.2	-0.4
TRPML1 blocker	11	5	-9	15	22	x
PINK1 modulator	-1.2%	-1.3%	-2.5%	-1.7%	0.3%	-0.2%
D2 ag	1.5	3.3	-1.4	-2.0	-0.6	x

Other results
49	Cc1ccc(/C=C/c2ccc(=O)n(Cc3ccc(F)cc3)n2)cc1
50	CC(C)CNC(=O)C(=O)NCc1ccccn1
51	Cc1cc(-c2nc(C)c(-c3nnc(SCC(=O)Nc4ccccc4)n3C)s2)no1
52	CNC(=O)c1ccc(Nc2nnc(-c3ccc(O)cc3)c3ccccc23)cc1
53	CCOC(=O)c1nnn(-c2nonc2N)c1CN(CC)CC
54	COc1ccccc1NS(=O)(=O)c1cc([N+](=O)[O-])ccc1N/N=C/c1c(C)[nH]c2ccccc12
55	CN1CCN(c2nc3cc(C(F)(F)F)ccc3n3cccc23)CC1
Screen / compound no.	49	50	51	52	53	54	55
CtBP-E1A blk	17	6	-19	-10	0	-24	u
Six1-Eya2 inh	11	14	-6	-23	6	-26	-13
TRPML1 agonist	4.2	0.3	-0.5	-0.1	0.1	13	2.2
TRPML1 blocker	50	-1	25	-2	12	3	19
PINK1 modulator	1.2%	2.5%	7.3%	12%	-0.1%	9.4%[38.3 µM]	1.4%
D2 ag	7.0	-2.2	-4.7	1.8	-1.8	-16	-4.4

Screens deposited in PubChem BioAssay by National Center for Advancing Translational Sciences (NCATS).
